Bioassay records: PubChem, several laboratories
Calb FLC = C. albicans growth modulation with fluconazole; C. albicans CaCi-2 (fluconazole-resistant clinical isolate) + fluconazole, Alamar Blue growth, 48 h; AID 1979; growth inhibition, % (no concentration beside the values); 300,000 compounds, 0.57% hits;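 active means most replicates above 75%; inconclusive means exactly half above 75%; inactive means most below 75%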;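 further: all wells also contain fluconazole at 8 µg/ml as a sub-toxic cotreatment; 0% = median of DMSO wells and 100% = median of geldanamycin control wells; wells of about 8 µL received 7.5 nL stock; the first replicate is given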
T cruzi inh = T. cruzi replication inhibition | T. cruzi beta-gal in NIH3T3, luminescence, 90 h | inhibition, % (test concentration not listed) | 300,000 compounds, 1.4% hits | AID 1885;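 active means mean inhibition across valid replicates above about 55%, limit read from the data; inconclusive means mean below that limit but half or more replicates reach it; inactive means mean below it, under half of replicates reach it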;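 further: signal also drops with host cell toxicity which is not excluded here; 0% = plate median of DMSO wells and 100% = zero luminescence signal; higher percent means less beta-gal luminescence so fewer parasites; stock transfer was 50 nL into about 50 µL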
MLL AF4-AF9 inh = blocks AF4 peptide binding to human AF9; 350,000 compounds, 0.47% hits; inhibition, % at 10 µM; AlphaScreen, biotin-AF4 peptide binding to FLAG-AF9;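 active means every replicate reaching a set inhibition limit, whatever the replicate mean, cut at about 25% in these data; inconclusive means mean inhibition reaches that limit but some replicates miss it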;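 further: 0% = plate neutral control median and 100% = total signal loss; the record names both 10 and 1 µM as test concentration; the first replicate is given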
Target sequence (P42568 whole entry, looked up): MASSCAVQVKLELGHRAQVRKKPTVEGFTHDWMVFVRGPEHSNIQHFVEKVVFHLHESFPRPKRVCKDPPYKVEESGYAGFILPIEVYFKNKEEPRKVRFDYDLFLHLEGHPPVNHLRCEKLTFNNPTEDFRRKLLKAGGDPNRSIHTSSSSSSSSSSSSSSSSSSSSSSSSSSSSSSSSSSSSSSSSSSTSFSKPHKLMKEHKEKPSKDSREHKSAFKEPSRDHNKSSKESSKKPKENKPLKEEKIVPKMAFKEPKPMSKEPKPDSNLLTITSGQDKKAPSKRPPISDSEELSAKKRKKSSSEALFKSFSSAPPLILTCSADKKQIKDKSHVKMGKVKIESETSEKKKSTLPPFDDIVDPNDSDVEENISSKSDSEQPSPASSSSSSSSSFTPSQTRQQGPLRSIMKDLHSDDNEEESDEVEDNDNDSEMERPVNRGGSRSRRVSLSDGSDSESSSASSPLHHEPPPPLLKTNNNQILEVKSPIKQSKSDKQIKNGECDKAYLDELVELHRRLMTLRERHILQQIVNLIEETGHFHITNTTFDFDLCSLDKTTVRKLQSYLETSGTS
Vif TR-FRET = HIV-1 Vif–A3G interaction blockers – biochemical, TR-FRET, GST-Vif 1-94, biotin-A3G peptide, dose response retest, primary screen (AID 1117319) | TR-FRET GST-Vif / biotin-A3G peptide binding; higher % means a stronger effect; test concentration not given here; strong numbers were not always called active | one-dose inhibition, %; IC50 in µM for titrated hits | 260,000 compounds, 0.57% hits;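 active means above the screen mean plus three standard deviations and confirmed in dose response; inconclusive means results disagree or hit not tested in dose response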;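 further: Vif residues 1-94 fused to GST binding biotinylated APOBEC3G peptide 110-148; 0% = full assay without inhibitor and 100% = GST in place of GST-Vif; retest series ran down from 100 µM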
LANA-H2B inh = blocks KSHV LANA binding to histone H2A/H2B; inhibition, % (test concentration not listed); 320,000 compounds, 0.6% hits; cell-free LANA-H2A/H2B peptide, fluorescence polarization; Q9QR71; AID 2629; in the data active means inhibition mostly above about 10%, no sharp cut-off; inactive means mostly below about 6.7%;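 further: stock transfer was 7.5 nL into about 10 µL; 0% = median of vehicle wells and 100% = median of positive control wells; one replicate is shown; the record names a cut of 25% in any replicate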
Beta apoptosis = blocks beta cell apoptosis; 300,000 compounds, 0.8% hits; protection from apoptosis, % (no concentration beside the values); INS-1E cytokine-induced death, ATP luminescence, 48 h; percent of positive-control rescue, neutral wells zero; AID 435005;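 active means all replicates at 75% or more, or half of them and the mean; inconclusive means half reach 75% but not the mean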;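 further: 0% = cytokine-treated negative control wells and 100% = positive control rescue; higher means more ATP so stronger rescue from cytokine killing; wells of about 40 µL received 100 nL stock; the first replicate is given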
A1 inh = inhibitors of the anti-apoptotic protein A1, read as caspase activation; AID 2462; 330,000 compounds, 0.066% hits; MEF A1-2A-BIM cells, Caspase-Glo 3/7 luminescence, 3 h; percent of clofoctol response, vehicle zero; caspase activation, % (concentration not given with the values);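 active means over half of replicate activation scores above 10%, or exactly half above 10 with the replicate mean above 10; inconclusive means replicate mean below 10 yet half the replicates above 10; inactive means over half of replicates below 10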;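 further: wells of about 30 µL received 50 nL stock; many hits fall short of the cut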
RanGTP-Imp inh = inhibitors of RanGTP-importin-beta interaction, primary screen, biochemical, FRET, CFP-Ran, YFP-importin-beta, homogeneous | cell-free CFP-Ran/YFP-importin-beta FRET ratio | inhibition, % (concentration not given with the values) | 300,000 compounds, 1.1% hits | AID 2216;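 active means most replicates above 15%; inconclusive means exactly half above 15%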;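 further: 0% = DMSO wells and 100% = Ran loaded with GDP instead of GTP; wells of about 40 µL received 100 nL stock; the first replicate is given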
Numbers without * were called inactive; ? = inconclusive; / = no result given.

SMILES	Calb FLC	T cruzi inh	MLL AF4-AF9 inh	Vif TR-FRET	LANA-H2B inh	Beta apoptosis	A1 inh	RanGTP-Imp inh
COc1ccc(C(=O)NCCC(=O)N2CCC3(CC2)NCCc2[nH]cnc23)cc1	-24	-20	-1.8	6%	2.4	-5	1.9	-3.0
CNS(=O)(=O)c1cc(S(=O)(=O)NC)c2cccc3c2c1NC3=O	8	10	1.4	5%	-1.8	-2	1.5	-1.4
COc1cccc(Nc2nc(-c3sc(C)nc3C)cs2)c1	3	4	1.2	-2%	-4.4	-5	0.2	4.4
CN(CC(=O)Nc1ccc(F)c(F)c1F)C(=O)C1CCC1	-6	0	-1.7	-7%	-5.7	-5	-0.7	1.6
CC(C)[C@H](NC(=O)c1ccco1)C(=O)OCc1cc(=O)n2c(n1)sc1ccccc12	3	-3	-4.1	16%	4.1	-8	-0.9	-3.2
COC(=O)c1c(NC(=O)COC(=O)c2ccc(Cl)cc2[N+](=O)[O-])sc2c1CCCCC2	-7	4	7.8	8%	4.2	1	-0.1	-1.9
CCOP(=O)(OCC)C(C#N)=C1SCN(c2ccc(Cl)cc2)CS1	0	21	/	23%	3.3	-11	0.5	?
CCOC(=O)c1c(S(=O)(=O)Nc2ccc(C)c(F)c2)c(C)n(C)c1C	-3	-2	-4.7	/	-5.8	5	0.5	-1.1
COc1ccccc1NC(=O)c1cc2ccc(O)cc2o/c1=N\O	6	-2	/	>100µM*	-3.9	5	-9.4	135*
Cc1cc(/C=N/NC(=O)c2cc3ccccc3o2)c(C)n1C	3	-13	2.4	-1%	2.0	4	-0.4	-1.5
COC(=O)c1ccccc1Oc1nc(Cl)cc(OC)n1	15	3	/	-2%	1.5	-7	0.3	-1.3
Cc1ccccc1S(=O)(=O)Cc1ccc(C(=O)NCCCOC(C)C)o1	-1	7	/	0%	-4.7	1	0.4	-1.8
COc1ccc(-n2c(=S)[nH]c3cc(C(=O)NCCCN4CCOCC4)ccc3c2=O)cc1OC	1	2	0.6	/	-0.9	/	2.0	-2.1
Clc1ccc(-c2csc3ncnc(NCCN4CCOCC4)c23)cc1	-5	-23	/	0%	1.3	0	0.1	-0.5
CC1CCCCN1C(=O)c1cc(-c2ccc3c(c2)OCO3)on1 (stereo not given)	-18	11	-3.5	0%	1.3	0	-0.7	7.7
O=C(c1ccc(NS(=O)(=O)c2ccc3c(c2)OCCO3)cc1)N1CCCCC1	-11	7	-1.3	7%	2.0	3	0.8	1.5
O=C1C(Cc2ccccc2)Nc2ncnc(N3CCN(c4ccccc4)CC3)c2N1Cc1ccccc1 (stereo not given)	3	19	5.0	/	-2.2	-7	0.0	-2.6
O=C(NC1CCCCC1)C(c1ccco1)N(Cc1cccnc1)C(=O)C1COc2ccccc2O1 (stereo not given)	14	52	/	-4%	0.4	0	-0.2	3.6
Cc1cc(Cl)c2oc(C(=O)N3CCN(C4CCS(=O)(=O)C4)CC3)c(C)c2c1 (stereo not given)	6	1	-1.0	/	-1.8	4	0.6	-0.4
CCC(Sc1nc2ccccc2o1)C(=O)Nc1nnc(C)s1 (stereo not given)	?	-2	/	17%	0.7	-16	-0.3	0.3
CC(=O)c1c(N2CCOCC2)nc(=S)n(-c2cc(C)ccc2C)c1C	17	-8	12	-2%	-4.2	-2	0.0	3.6
O=Cc1cccnc1SCc1ccccc1	3	9	-1.6	/	-0.5	5	-0.1	1.4
C=CCN(CC=C)C(=O)Nc1cc(Cl)ccc1OC	-23	12	/	30%	1.6	2	0.6	0.5
CCO/C=C/C(O)(CNC(=O)c1ccc(C(C)(C)C)cc1)C(F)(F)F (stereo not given)	-7	5	-13	-3%	5.6	13	-0.2	-1.7
O=C(NCCCCNC(=O)c1ccccc1Cl)c1ccccc1Cl	9	-7	-8.6	/	0.8	-6	0.8	1.5
(further entries)
SMILES	Calb FLC	T cruzi inh	MLL AF4-AF9 inh	Vif TR-FRET	LANA-H2B inh	Beta apoptosis	A1 inh	RanGTP-Imp inh
CN(CC(=O)Nc1cccc(F)c1)C(=O)CN1C(=O)C2CC=CCC2C1=O (stereo not given)	5	1	-2.0	0%	/	0	0.1	-0.7
Cc1cc(C)c(S(N)(=O)=O)c(C)c1N(C)S(=O)(=O)c1ccccc1	0	-4	-1.5	-5%	-1.4	-11	0.0	-2.7
Cc1c(CCO)c(=O)n(-c2ccccc2)n1S(=O)(=O)c1ccc(Cl)cc1	-11	6	/	11%	1.3	-7	1.0	5.2
CC(=O)Nc1ccc2nc(SCC(=O)Nc3ccc(N4CCOCC4)c(Cl)c3)sc2c1	-4	7	/	6%	2.2	-6	0.0	5.9
CC(C)(C)OC(=O)CNC(=O)c1nc[nH]c1C(=O)N1CCN(C(=O)OC(C)(C)C)CC1	-9	-3	0.1	/	-3.7	-5	1.8	-0.5
CCN(CCO)Cc1csc2cccc(Br)c12	-8	13	/	-1%	3.6	-2	0.4	0.1
Cc1ccc(NC(=O)CSc2nnc(CCCCCNC(=O)OC(C)(C)C)o2)c(C)c1	-23	/	-5.4	21%	4.0	/	-0.3	-2.6
Cc1ccc(C2=NN(CC(=O)NCCC(C)C)C(=O)CC2)cc1	2	2	-4.1	-2%	-3.5	5	0.2	-4.2
COc1cc(/C=C/C(=O)OCC(=O)NCc2ccco2)ccc1OCC#N	-5	-14	0.3	-3%	-1.8	5	-3.0	1.2
OCCC1CN(Cc2nc3c(s2)CCCC3)CCN1Cc1ccccc1 (stereo not given)	4	40	5.3	-2%	-1.0	-4	0.4	-0.1
COC(=O)N/N=C1/C/C(=N\NC(=O)OC)c2ccccc21	36	-8	-1.0	17%	9.8	9	-1.8	1.6
CCCCSc1nc(C)cc(SCC(=O)N/N=C/c2cccc(OC)c2O)n1	-16	1	/	5%	0.5	48	-0.4	-1.5
O=C(/C=C/c1ccccc1)Oc1cccc2cccnc12	-7	-45	7.3	/	-2.5	-3	-0.3	0.3
C=C(C)CNC(=S)Nc1ccc(S(=O)(=O)Nc2cnc3ccccc3n2)cc1	6	10	-0.8	28%	1.0	-5	1.2	7.5
CCN(CC(=O)NC(C)(C)C)C(=O)CCl	-15	-6	/	/	1.5	-5	0.9	1.9
O=C(Nc1ccncc1)c1ccc2c(c1)C(=O)N(CC1CCCO1)C2=O (stereo not given)	13	-26	/	5%	/	-7	-0.3	-0.8
COc1ccc(/C=N/Nc2nc(-c3ccc(C)cc3)c(NC(C)=O)s2)cc1OC	-6	19	3.8	18%	1.1	2	-1.4	6.3
Nc1nnnn1/N=C/c1ccco1	-2	-7	/	18%	-3.9	-7	0.1	3.6
O=C(O)CCC(=O)N1CCc2cc(S(=O)(=O)N3CCC(Cc4ccccc4)CC3)ccc21	-3	-8	0.7	-3%	0.0	4	0.1	3.2
CCc1ccc(NC(=O)c2noc3c2CCc2ccccc2-3)cc1	-11	14	/	20%	0.9	0	-5.0	2.7
Cc1ccc(S(=O)(=O)NC(Cc2ccccc2)C(=O)O)cc1C (stereo not given)	4	-3	-2.9	-5%	0.9	-2	1.2	-2.3
Cc1cccc(N(C(=O)c2csnn2)C(C(=O)NCc2ccccc2)c2ccc(C)o2)c1 (stereo not given)	2	7	2.1	/	4.2	2	-0.8	2.7
O=C(O)C1CCCCC1C(=O)Nc1nc(-c2ccc(Cl)s2)cs1 (stereo not given)	-10	-21	-5.2	31%	-2.9	-5	-0.2	-3.7
O=C(Nc1ccccc1Cl)NC1(C(=O)NCc2ccncc2)CCCCC1	1	-14	-0.4	7%	-3.8	0	0.7	-2.5
Cc1cc(OCC(=O)NCc2ccccn2)c2c(C)c(Cc3ccccc3)c(=O)oc2c1	6	11	-1.2	/	0.9	4	0.3	2.8
Later entries.
SMILES	Calb FLC	T cruzi inh	MLL AF4-AF9 inh	Vif TR-FRET	LANA-H2B inh	Beta apoptosis	A1 inh	RanGTP-Imp inh
NC(=O)C1CCN(C(=O)c2cn(-c3ccccc3)nc2-c2cccnc2)CC1	15	1	-1.0	3%	5.3	1	0.5	6.9
CSc1ccc(CN2CCC(C(=O)NCc3ccc(C)cc3)CC2)cc1	-18	10	0.7	14%	4.4	1	-1.2	-4.4
O=C(NC1CC1)c1ccc(S(=O)(=O)NCC2CCCCC2)cc1	-4	-7	-2.6	11%	-4.4	/	-0.8	-0.7
CC1(C)Nc2ccccc2C(=O)N1NS(=O)(=O)c1ccccc1	1	8	-2.5	1%	-3.0	-10	1.3	-3.5
O=C1CSC(c2ccco2)N1 (stereo not given)	0	8	/	6%	-6.2	1	1.9	4.9
COc1ccccc1Nc1ccc(NC(=O)c2cccc([N+](=O)[O-])c2C)cc1	-5	35	1.6	/	-1.8	19	0.5	0.0
O=C(Nc1cccc([N+](=O)[O-])c1)c1ccc2ccccc2c1O	40	4	3.0	17%	-5.6	-5	-7.9	-3.5
CCc1c(C)c2cc(Cl)c(O)c(CN(CC)CC)c2oc1=O	-5	1	5.0	6%	-0.5	-3	0.3	26*
c1ccc(-c2ccc(OCCN3CCOCC3)cc2)cc1	7	8	2.3	/	-2.1	-2	-9.6	-0.4
CC(O)CNC(=S)Nc1ccccc1 (stereo not given)	8	-1	-9.6	/	-2.1	2	-0.5	-8.0
O=C(c1ccccc1NS(=O)(=O)c1ccc(F)cc1)N1CCOCC1	-1	14	-2.2	3%	-5.3	-3	-0.5	1.7
CCc1c(C)[nH]n(CCC#N)c1=O	-22	7	/	-3%	1.0	-9	-0.5	?
Cc1ccc(C)c(NC(=O)CN(C)C(=O)c2ccc(Cl)nc2)c1	3	0	-9.2	/	3.0	-5	-0.7	6.8
CCOc1ccc(S(=O)(=O)N(CC)CC(=O)NCc2ccccn2)cc1C	-6	-8	-10	/	-2.0	-7	0.2	2.4
CC(=O)CSc1nsc(SCC(C)=O)c1C#N	7	-10	/	28%	-1.9	-6	-0.7	4.2
COc1ccc(C)cc1NC(=O)CSc1nnc(CC(=O)Nc2cccc(C(F)(F)F)c2)n1C	-1	-9	/	0%	/	/	/	1.4
Cc1[nH]c2ccccc2c1C(=O)COC(=O)c1ccc2c(=O)n3c(nc2c1)CCC3	26	-2	-1.1	-8%	2.4	0	-0.6	-1.8
Cc1cc(C(=O)N(Cc2nnc(-c3ccc(Cl)cc3)o2)C(C)C)c2ccccc2n1	/	/	2.4	-9%	/	5	0.3	/
Cc1cc(O)cc(=O)n1C	-20	0	-3.1	-1%	1.5	-2	0.4	5.6
CCCCN(CCCNC(=O)CN1C(=O)COc2ccccc21)c1ccccc1	15	18	/	8%	3.4	/	1.5	-6.7
CCn1c(C(=O)NCc2cccnc2)cc2sc(Cl)cc21	23	62*	/	28%	-3.6	-3	0.3	-0.7
NNC(=O)Cn1c2ccccc2c2ccccc21	1	1	-2.3	10%	4.5	4	0.7	1.2
Cc1ccc(S(=O)(=O)N2CCC(C(=O)N(C)C3CCS(=O)(=O)C3)CC2)cc1 (stereo not given)	1	-1	/	-3%	0.5	1	0.1	-2.6
Cn1c(N2CCOCC2)c(/C=N/OC(=O)c2ccc(F)cc2)c2ccccc21	94*	65*	/	-1%	3.6	65	-0.7	4.2
Oc1cccc(Nc2ncnc3c2oc2ccccc23)c1	91*	-4	1.4	/	-3.4	7	-8.4	1.2
Cc1ccc([N+](=O)[O-])cc1NC(=O)c1cccs1	-4	4	-0.9	0%	2.7	-3	-0.4	1.2
